Rango dissoc inh: qHTS Assay for Inhibitors of RanGTP induced Rango (Ran-regulated importin-beta cargo) - Importin beta complex dissociation. Snurportin-1 (Homo sapiens) + GTP-binding nuclear protein Ran (Homo sapiens) + Importin …. Biochemical FRET Rango-importin beta, RanGTP-induced dissociation. Potency, µM (doses to about 46.1 µM), for the others: at the highest dose activity change, negative = inhibition. 340,000 tested, 0.071% active; active means falling FRET ratio curve, often poorly fitted, with flat reads before Ran was added; inconclusive means other falling curves, or compound fluorescence or quenching; inactive means flat or rising ratio curve;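 note: potency is the fitted concentration of half-maximal effect; % of control where 0% means no effect; nearly all actives have a fitted effect of over 45% in size; -100% = wells without RanGTP and RCC1; the record marks most hits as doubtful in a second field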
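Rango FRET biosensor (snurportin-1 IBB flanked by N-terminal EYFP and C-terminal CFP10) at 0.1 uM, with 0.25 uM importin beta in PBS, 1mM DTT, 0.02% Tween-20, 0.1% BSA. 0.6 uM Ran, 2mM GTP and 0.2 uM RCC1 were then added for 45 min at room temperature. Inhibition read as loss of FRET rise.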
miR-21 reporter: qHTS Assay for Modulators of miRNAs and/orActivators of miR-21; HeLa miR-21 FLuc reporter, luciferase, 48 h; Potency, µM (doses to about 38.3 µM), inactives show at the top dose reporter change, positive = more light; 340,000 tested, under 10 active; active = well fitted rising curve with a large enough effect; inconclusive = small, poorly fitted or top-dose-only effect; inactive = no such curve, though single readings can be large or run the other way;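 note: % of control where 0% means no effect; miR-21 action dims this reporter so a rising signal means less miR-21 action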
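HeLa cells endogenously expressing miR-21, stably carrying CMV-driven firefly luciferase with a downstream miR-21 binding site, 2000 cells/well. Titrations up to approximately 40 uM, 48 hours; luciferase luminescence read.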
GLA inh pH 4.5: qHTS Assay for Inhibitors of Human alpha-Galactosidase at pH 4.5; AID 1467, 2008; 230,000 tested, under 10 active; purified enzyme, 4-MU-alpha-Gal fluorescence, pH 4.5; activity change, negative = inhibition, % at 105 µM; inconclusive = small, poorly fitted or top-dose-only inhibition, or a rising curve; inactive = flat fitted curve, though single readings scatter; no compound was filed as active;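 note: 0% = full activity with enzyme and -100% = basal without enzyme; dose as in the result columns while the protocol names 77 µM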
Rango complex inh: qHTS Assay for Inhibitors of Rango (Ran-regulated importin-beta cargo) - Importin beta complex formation | Potency, µM (titrated, usually from 92.2 µM), for inactives: top-dose inhibition of complex formation | Rango CFP/YFP FRET sensor + importin beta, 45 min | 340,000 tested, 0.031% active | Importin subunit beta-1 (Homo sapiens), Q14974; active = rising FRET ratio curve, often small or poorly fitted; inconclusive = mostly compound fluorescence or quenching in the first reads; inactive = flat curves in all reads;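 note: potency is the fitted concentration of half-maximal effect; 0% = DMSO wells and 100% = buffer wells lacking importin beta; nearly all actives have a fitted effect of over 15% in size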
Target sequence (Q14974 whole entry, looked up): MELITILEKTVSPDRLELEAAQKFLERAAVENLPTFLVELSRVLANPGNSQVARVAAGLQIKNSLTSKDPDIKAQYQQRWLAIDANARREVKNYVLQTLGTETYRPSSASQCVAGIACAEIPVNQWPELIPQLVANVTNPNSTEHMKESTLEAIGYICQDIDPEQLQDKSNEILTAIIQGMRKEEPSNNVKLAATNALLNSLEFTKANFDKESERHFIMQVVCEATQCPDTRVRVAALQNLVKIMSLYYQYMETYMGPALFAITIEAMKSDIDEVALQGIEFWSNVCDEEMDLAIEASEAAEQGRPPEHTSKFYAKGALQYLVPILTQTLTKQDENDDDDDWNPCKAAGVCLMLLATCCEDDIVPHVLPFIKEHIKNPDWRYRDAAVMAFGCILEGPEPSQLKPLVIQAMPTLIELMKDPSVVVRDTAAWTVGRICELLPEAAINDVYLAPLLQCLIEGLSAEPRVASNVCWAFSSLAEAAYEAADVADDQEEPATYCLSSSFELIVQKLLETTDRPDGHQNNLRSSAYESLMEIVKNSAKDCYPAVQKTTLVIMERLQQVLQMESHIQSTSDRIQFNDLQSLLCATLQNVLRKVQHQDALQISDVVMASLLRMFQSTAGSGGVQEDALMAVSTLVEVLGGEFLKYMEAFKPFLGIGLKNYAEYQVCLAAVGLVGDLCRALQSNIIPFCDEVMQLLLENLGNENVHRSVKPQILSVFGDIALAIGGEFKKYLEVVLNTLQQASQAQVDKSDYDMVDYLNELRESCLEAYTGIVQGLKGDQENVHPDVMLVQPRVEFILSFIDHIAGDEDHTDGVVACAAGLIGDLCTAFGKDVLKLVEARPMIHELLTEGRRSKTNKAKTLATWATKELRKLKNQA
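Inhibition scored from the CFP 486 nm/YFP 530 nm FRET ratio 45 min after adding 0.125 microM importin beta to 50 nM Rango biosensor preincubated 5 min with compound (room temperature, PBS with DTT, Tween-20, BSA). No-importin wells as positive control.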
The depositor's hits bear a star; ? = inconclusive; / = no result given; & = joins results of further samples.

SMILES	Rango dissoc inh	miR-21 reporter	GLA inh pH 4.5	Rango complex inh
CC(=O)Nc1ccccc1Oc1ccccc1	-19.2%	-2.5%	3.3	-0.4%
CC(C)c1ccc(NC(=O)Cc2cn(C)c3ccccc23)cc1	-16.4%	-24.5%	-10.5	1.1%
O=c1c2c(-c3ccc([N+](=O)[O-])cc3)csc2nc2n1CCC2	-5.7%	-5.2%	-3.6	1.6%
COc1ccc(N2CCCn3c2nc2c3c(=O)n(Cc3ccccc3F)c(=O)n2C)cc1	/	-3.5%	-8.5	/
COc1ccc(-c2noc(CN3CCC(Cc4ccccc4)CC3)n2)cc1	30.5%	-1.6%	4.2	-0.6%
CCc1nnc(NC(=O)CSc2nc(N)c(NC(=O)c3ccc(OC)cc3)c(=O)[nH]2)s1	2.1%	-2.4%	/	-0.7%
O=C(CN1CCOCC1)N1N=C(c2cccs2)CC1c1cccs1 (centres undefined)	5.3%	-4.2%	-0.5	-2.2%
CN(Cc1ccccc1Cl)C(=O)c1cnccc1C(F)(F)F	19.7%	-0.8%	-4.0	0.2%
O=C(O)CC(NC(=O)/C(=C/c1ccccc1)NC(=O)c1ccccc1)c1ccccc1 (centres undefined)	0.4%	3.6%	/	5.3%
O=C(O)c1cc(C(=O)C2CC2)c[nH]1	2.2%	3.9%	4.4	-0.4%
CC(=O)c1cccc(S(=O)(=O)NC2CCSc3ccccc32)c1 (centres undefined)	21.6%	-7.9%	/	3.3%
CC(C)C(c1nnnn1C1CCCCC1)N1CCc2ccccc2C1 (centres undefined)	-2.3%	5.1%	1.6	-0.6%
CCOC(=O)[C@H]1[C@H]2COc3ccccc3[C@@H]2N2C(=O)CN(Cc3ccccc3)C(=O)[C@@]12C	-9.4%	/	/	0.0%
COc1cccc(C(c2sc3ncnn3c2O)N2CCN(C(=O)c3ccco3)CC2)c1 (centres undefined)	7.0%	-7.9%	2.4	3.7%
CC(C)CCSc1nc2[nH]ncc2c(=O)[nH]1	9.3%	-6.4%	1.6	1.9%
Cc1cccc(N(CC(=O)NCCc2ccccc2)C(=O)CCC(=O)Nc2ccccn2)c1C	-1.6%	6.4%	/	-4.9%
COC(=O)C1CCN(Cc2cn(Cc3ccccc3)nc2-c2cc3ccccc3o2)CC1	0.4%	-9.1%	-12.8	-2.8%
COC(=O)/C(=C/c1ccc(OC)cc1)NC(=O)c1ccco1	-5.5%	-6.9%	-3.5	0.4%
CC(=O)c1ccc(OCc2cc(C(=O)N3CCOCC3)no2)cc1	-3.1%	-60.2%	/	-0.9%
CN(C)c1c([N+](=O)[O-])cc(N2C(=O)C=CC2=O)cc1[N+](=O)[O-]	8.9%	/	/	1.8%
O=C(Nc1cc(Sc2nc3ccccc3s2)cc([N+](=O)[O-])c1)c1ccccc1F	1.0%	6.8%	5.7	-1.4%
O=C(COC(=O)/C=C/c1ccc(S(=O)(=O)N2CCOCC2)cc1)Nc1ccccc1F	1.7%	/	/	-0.3%
COc1ccc(NS(=O)(=O)c2cc(-c3cnc(C4CC4)o3)ccc2C)cc1	10.6%	20.1%	/	0.0%
Cc1ccc(-c2csc3nc(C)n(N)c(=O)c23)o1	0.8%	-48.0%	5.2	0.2%
O=C(NC1CCN(Cc2ccccc2)C1)c1cc(COc2ccc(F)cc2F)on1 (centres undefined)	-5.9%	0.9%	-9.4	-2.4%
O=C(c1ccc([N+](=O)[O-])cc1)N1CCOC12CCN(c1ncc(C(F)(F)F)cc1Cl)CC2	2.6%	-15.3%	-8.6	-0.2%
CCCNC(=O)COC(=O)c1ccc(S(=O)(=O)N2CCCC2)cc1	3.2%	0.0%	-4.7	-1.0%
COc1ccc(NS(=O)(=O)c2cccc(C(=O)NC3CCN(Cc4ccccc4)CC3)c2)cc1	-5.4%	-0.8%	/	-3.8%
CCC(=O)Nc1ccc(NC(=O)c2cc3ccccc3o2)c(OC)c1	?	-47.9%	/	?
COc1ccc(Cl)cc1NC(=S)N1CCN(C(=O)c2ccco2)CC1	0.5%	-2.6%	-14.9	-1.1%
COC(=O)CSc1nc(NCc2ccccc2)nc(N(C)C)n1	-4.8%	0.7%	4.8	-3.8%
COC(=O)/C=C/c1ccc2c(c1)S(=O)(=O)N(Cc1ccc(OC)cc1)[C@H]2CC(=O)OC	-14.4%	/	/	-4.9%
Cn1c(NCc2ccco2)nc2ccccc21	0.2%	-35.9%	-5.9	0.3%
CCC1CCCCN1CCCNC(=O)Cn1cc2c(n1)-c1c(oc(C(=O)N3CCCC3)c1C)CC2 (centres undefined)	-14.8%	1.5%	/	-0.5%
CC(NC(=O)Nc1ccccc1)C(c1cccs1)N1CCN(C)CC1 (centres undefined)	-1.8%	-0.2%	1.2	-5.5%
Cc1cc(C)n(C(=O)CNC(=O)c2cccc(Cl)c2)n1	-1.6%	-0.9%	/	-0.1%
CCCc1sc(C(=O)Nc2nnc(C3CC3)s2)cc1CC	2.1%	/	/	-1.1%
CCOC(=O)c1c(-c2cccc([N+](=O)[O-])c2)csc1NC(=O)C1CC1	-16.7%	-6.4%	2.5	3.6%
CCOC(=O)c1cc(C(=O)NC(C)c2ccccc2)c(C)[nH]c1=O (centres undefined)	-0.8%	1.2%	-4.5	-0.5%
O=C(CN1CCN(c2ccc(C(F)(F)F)cn2)CC1)NCc1ccc2c(c1)OCO2	7.2%	-1.2%	-6.6	7.2%
CSCCC(NC(=O)c1ccco1)C(=O)NCC(C)(C)N1CCOCC1 (centres undefined)	-4.0%	/	/	-0.9%
COc1ccc(C(=O)Nc2ncccc2C)cc1S(=O)(=O)N1CCOCC1	-1.0%	/	/	?
CC(C)c1ccc(NC(=O)C2CCN(S(=O)(=O)c3ccc4c(c3)C(C)(C)C(=O)N4C)CC2)cc1	?	18.1%	/	?
COc1ccc(C(=O)Nn2c(CCC(=O)O)ccc2-c2ccc(C)cc2)cc1OC	14.9%	-4.1%	7.5	4.7%
O=C(NCCNC(=O)c1cc(OCC(F)(F)F)ccc1OCC(F)(F)F)Nc1cccc(C(F)(F)F)c1	9.0%	25.1%	-4.7	-0.4%
Cc1cccc(CN2CCC(CNC(=O)CSc3cc(=O)n(C)c4cc(Cl)ccc34)CC2)c1	14.4%	3.5%	-1.1	-0.8%
Cc1ccc(OCC(=O)Nc2ccccc2C(=O)N2CCCCC2)cc1	-8.4%	-3.9%	/	0.3%
COc1ccc(NC(=O)COc2ccc(CNCCCN3CCOCC3)cc2OC)cc1	11.7%	-5.7%	5.9	-2.8%
O=C(CN1C(=O)NC(c2ccccc2)(c2ccccc2)C1=O)Nc1cccnc1Cl	-12.4%	-2.7%	-2.6	-4.7%
O=C(CSc1nnc(-c2cccnc2)o1)N1CCCCC1	5.6%	-10.6%	/	-0.3%

The listing continues.
SMILES	Rango dissoc inh	miR-21 reporter	GLA inh pH 4.5	Rango complex inh
COC(=O)c1cccc(-n2nnnc2SCC(=O)Nc2nc3c(s2)CCCC3)c1	0.3%	-1.1%	0.3	-2.6%
Cc1ccc(S(=O)(=O)N(C)CC(=O)NCc2ccncc2)cc1	8.3%	0.1%	0.8	-2.6%
CC[C@H](C)[C@@H](NC(=O)O[C@@H]1C(=O)c2cc(Br)ccc2O[C@H]1c1ccc2c(c1)OCO2)C(=O)OC	/	-16.4%	-2.7&3.7	/
Cc1cc(C)n(C(=O)c2cc3ccccc3c(=O)o2)n1	17.4%	-5.8%	-1.1	-0.2%
O=C(N1CCCCC1)N1CCN(C(=O)N2CCCCC2)CC1	-5.5%	-1.8%	6.9	0.0%
CCCc1nc2c(sc3nc4c(cc32)COC(C)(C)C4)c(=O)n1CCN(C)C	-1.7%	0.7%	4.7	-0.5%
COc1ccc(-c2cc(-c3nnc(COC(=O)c4ccncc4)o3)c3ccccc3n2)cc1OC	?	0.2%	-15.7	?
CSc1cccc(NC(=O)CNC(=O)c2ccc3c(c2)OCO3)c1	-16.7%	/	/	-1.4%
COc1cccc(CCN2CCC(CNS(=O)(=O)c3cc(-c4cc(C)no4)ccc3OC)CC2)c1	-20.1%	21.6%	/	0.0%
COc1ccc(C(CNC(=O)Cn2c(=O)oc3ccccc32)N(C)C)cc1 (centres undefined)	2.3%	0.1%	/	-4.2%
CCO[C@H]1OC(C(=O)Nc2ccccc2)=C[C@@H](c2cn(C(C)=O)c3ccccc23)[C@@H]1CCCO	15.8%	4.5%	-13.4	-2.3%
Cc1noc(C)c1CSCC(=O)OCc1nnc(-c2ccc([N+](=O)[O-])cc2)o1	0.1%	/	/	0.5%
COc1ccc2c(c1)c(CC(=O)Nc1nnc(C3CC3)s1)c(C)n2C(=O)c1ccc(Cl)cc1	-0.7%	13.8%	0.8	3.6%
CC1CCc2c(sc(NC(=O)Cn3cnc([N+](=O)[O-])n3)c2C(N)=O)C1 (centres undefined)	2.8%	-2.2%	-1.5	1.7%
O=C(c1ccc(CS(=O)(=O)c2ccc(Br)cc2)o1)N1CCN(c2ncccn2)CC1	-10.2%	-0.8%	-4.0	2.2%
C[C@@H]1CCCCCCCCC(=O)OCCN[C@H](C)CCCCCCCCC(=O)OCCN[C@H](C)CCCCCCCCC(=O)OCCN1	-16.4%	/	/	7.8%
CCC1Oc2ccc(C)cc2N(CC(=O)N(Cc2ccc3c(c2)OCO3)CC2CCCO2)C1=O (centres undefined)	-9.0%	10.6%	-15.1	-2.4%
CCOC(=O)N1CCN(c2c(Nc3ccc4c(c3)OCCO4)c(=O)c2=O)CC1	-19.3%	-13.1%	-9.6	-1.5%
O=C(Nc1c2c(nn1-c1cccc(Cl)c1)CS(=O)(=O)C2)c1cccs1	1.2%	1.4%	/	0.5%
CC(C)C(c1nnnn1C1CCCC1)N1CCCc2ccccc21 (centres undefined)	5.4%	-1.5%	-3.6	-0.7%

Some of the entries so far, with values under each structure.
Values in the order – Rango dissoc inh, miR-21 reporter, GLA inh pH 4.5, Rango complex inh
- CCOC(=O)N1CCN(c2c(Nc3ccc4c(c3)OCCO4)c(=O)c2=O)CC1
    -19.3%, -13.1%, -9.6, -1.5%
- O=C(c1ccc(CS(=O)(=O)c2ccc(Br)cc2)o1)N1CCN(c2ncccn2)CC1
    -10.2%, -0.8%, -4.0, 2.2%
- CC1CCc2c(sc(NC(=O)Cn3cnc([N+](=O)[O-])n3)c2C(N)=O)C1 (centres undefined)
    2.8%, -2.2%, -1.5, 1.7%
- Cc1noc(C)c1CSCC(=O)OCc1nnc(-c2ccc([N+](=O)[O-])cc2)o1
    0.1%, /, /, 0.5%
- O=C(Nc1c2c(nn1-c1cccc(Cl)c1)CS(=O)(=O)C2)c1cccs1
    1.2%, 1.4%, /, 0.5%

More results:
SMILES	Rango dissoc inh	miR-21 reporter	GLA inh pH 4.5	Rango complex inh
CN1CCN(/N=C/c2ccc(N(c3ccccc3)c3ccccc3)cc2)CC1	7.1%	10.0%	-2.0	-2.0%
Cc1ccc(C)c(C(=O)COc2ccccc2[N+](=O)[O-])c1	0.5%	-4.3%	5.9	-0.1%
COC(=O)c1ccc2nc(Nc3nc4ccc(F)cc4s3)sc2c1	13µM*	2.7%	23.4	?
Cc1ccc(N2CCN(C3=NC(=O)/C(=C\c4cn[nH]c4-c4ccccc4)S3)CC2)cc1	2.9%	12.8%	2.4	-0.9%
O=[N+]([O-])c1cccc(COc2ccc(CN3CCOCC3)cc2)c1	-5.9%	/	/	-3.0%
CC(=O)N1CCC(N(C(=O)Nc2ccc(F)cc2)C2CCCC2)CC1	-13.7%	-16.3%	3.5	-4.3%
CC(C)(C)c1cc(Br)ccc1OCC(=O)Nc1ncn[nH]1	3.5%	-0.5%	-2.5	1.4%
CCOc1ccc(NC(=O)Nc2ccc3c(c2)nc(C)n3C)cc1	21.9%	-25.9%	-5.6	-5.5%
COc1ccc(Nc2ncc3c(n2)CC(c2ccc(OC)cc2)CC3=O)cc1 (centres undefined)	-10.1%	-20.4%	-1.2	-1.1%

Bioassay records: PubChem BioAssay, National Center for Advancing Translational Sciences (NCATS)

This is a subset (hit frequency here may not be typical).
